Source: PubChem
D2 agonist: activates the human D2 dopamine receptor; activation, % (no concentration beside the values); P14416; AID 624465; 360,000 tested, 0.084% active; DiscoveRx PathHunter D2 beta-arrestin, luminescence, 90 min; 100% = 57 uM dopamine signal; in the data active = activation above about 40%; inconclusive = about 15% to 40%; inactive = below about 15%; note: compound concentration not given in the record; the text of the record calls up to 30% inactive
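Agonist mode: compounds alone added to overnight-plated D2 PathHunter cells for 90 min at 37 C, with 57 uM final dopamine (EC100) defining full response. Beta-arrestin recruitment detected by chemiluminescent reagent, read after 1 h at ambient temperature.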
TRPML1 agonist: human mucolipin-1 channel agonism; TRPML1-expressing cells, Ca2+ dye fluorescence, FDSS; host cell line not named in the record; reference of the full effect not given here; 410,000 tested, 0.12% active; activation, % (concentration not given with the values); Q9GZU1; in the data active = activation above about 50%; inconclusive = about 30% to 50%; inactive = below about 30%; note: 0% is about no effect; the text of the record puts the active cut at 80%
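Calcium fluorescence on an FDSS kinetic reader gave the read-out. Tet-induced TRPML1-DL cells were plated overnight, dye-loaded (Ca8 with quencher, 45-90 min, room temperature, dark), then read 110 s after compound addition, and again 110 s after 4uM final 54-4 (EC80).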
Six1-Eya2 inh: Six1/Eya2 interaction inhibition; AlphaScreen GST-Six1/His-Eya2 binding, biochemical; hits give low values; control for the full effect not named in the record; activity change, % (concentration not given with the values); 360,000 tested, 0.56% active; in the data active = activity change below about -65%; inconclusive = about -30% to -65%; inactive = above about -30%; note: % is set by controls: 0 for no effect and ±100 for the full control effect
Target sequence (O00167 whole entry, looked up): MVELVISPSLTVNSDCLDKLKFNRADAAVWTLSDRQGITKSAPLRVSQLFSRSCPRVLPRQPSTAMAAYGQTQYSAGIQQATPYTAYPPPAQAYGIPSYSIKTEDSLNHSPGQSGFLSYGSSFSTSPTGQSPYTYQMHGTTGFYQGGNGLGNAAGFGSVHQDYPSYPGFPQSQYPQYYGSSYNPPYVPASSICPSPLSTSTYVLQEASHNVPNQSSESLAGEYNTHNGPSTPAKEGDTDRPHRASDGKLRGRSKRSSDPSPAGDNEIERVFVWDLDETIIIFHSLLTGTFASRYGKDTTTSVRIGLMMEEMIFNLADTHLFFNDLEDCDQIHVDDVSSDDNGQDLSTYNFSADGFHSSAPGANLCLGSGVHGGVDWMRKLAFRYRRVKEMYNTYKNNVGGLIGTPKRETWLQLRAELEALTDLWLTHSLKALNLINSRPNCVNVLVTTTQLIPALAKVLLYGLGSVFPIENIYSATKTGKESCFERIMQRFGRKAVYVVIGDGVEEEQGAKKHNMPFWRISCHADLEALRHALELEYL
Target sequence (Q15475 whole entry, looked up): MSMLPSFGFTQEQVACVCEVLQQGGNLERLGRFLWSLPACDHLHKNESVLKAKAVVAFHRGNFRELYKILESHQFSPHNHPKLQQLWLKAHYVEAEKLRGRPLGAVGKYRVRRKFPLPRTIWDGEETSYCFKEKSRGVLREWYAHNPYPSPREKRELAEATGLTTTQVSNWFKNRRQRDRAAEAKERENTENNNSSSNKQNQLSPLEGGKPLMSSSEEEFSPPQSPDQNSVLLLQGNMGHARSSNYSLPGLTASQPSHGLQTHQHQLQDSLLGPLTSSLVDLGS
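AlphaScreen luminescence read after one hour at 37 °C in darkness. Pin-transferred compounds met GST-Six1 and His-Eya2 protein (5X stock 250 nM/500 nM) plus glutathione donor and Ni-chelate acceptor beads (5X, 50 ug/mL).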
PINK1 expr mod: PINK1 expression modulation; 410,000 tested, 0.2% active; Potency, µM (doses to about 76.6 µM), for inactives: top-dose activation (PINK1 increase), most hits filed as activators; PINK1 immunofluorescence, high-content cytometry, 24 h; active = well fitted activation curve with a large enough effect; inconclusive = small, poorly fitted or top-dose-only effect; inactive = flat fitted curve, though single readings scatter; cell line not stated here;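 note: potency is the fitted concentration of half-maximal effect; % of control where 0% means no effect; nearly all actives have a fitted effect of over 65% in size; a mitochondrial uncoupler was the plate control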
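PINK1 protein, normally rapidly degraded, was detected by immunofluorescence after 24 hour compound treatment of a stable cell line. Titration data (5 concentrations) came from laser-scanning cytometry, with CCCP-treated wells as controls.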
CtBP-E1A inh: CtBP/E1A binding inhibition | AlphaScreen GST-E1A/His-CtBP binding, 1536-well; hits give low values; control for the full effect not named in the record | activity change, % (concentration not given with the values) | 340,000 tested, 0.49% active | AID 651724; in the data active means activity change below about -65%; inconclusive means about -30% to -65%; inactive means above about -30%; note: % is set by controls: 0 for no effect and ±100 for the full control effect
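Steps: dispense buffer (Tris pH 8.0, NaCl 300 mM, TCEP 1 mM, BSA, Tween 20); add 5X protein mix (GST-E1A, His-CtBP, 125 nM each); pin 23 nL compound; 2 h at 37 °C, dark; add 5X beads (50 ug/mL); 1 h; read.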
D2 potentiator: positive allosteric modulators of human D2 dopamine receptor | DiscoveRx D2 beta-arrestin cells, luminescence, 90 min; 100% = 57 uM dopamine signal | P14416 | AID 624464 | 360,000 tested, 0.23% active | potentiation, % (concentration not given with the values); active = potentiation of 50% or more; inconclusive = 30% to 50%; inactive = 30% or less;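 note: compound concentration not given in the record; tested on top of an EC20 dose of dopamine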
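D2 cells co-treated with compound plus 50 nM dopamine (EC20) for 90 min at 37 deg C to detect potentiation. Beta-arrestin recruitment was read as enzyme-fragment luminescence after 1 h at ambient temperature. Full response was set by 57 uM dopamine.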
* marks the source's active call; other numbers are inactive results; ? = inconclusive; . = no result given; [ ] = another dose, or the depositor's remark.

Molecule | D2 agonist | TRPML1 agonist | Six1-Eya2 inh | PINK1 expr mod | CtBP-E1A inh | D2 potentiator
CCN(CC(=O)NCc1cccs1)S(=O)(=O)c1ccccc1Cl | -5.0 | -0.3 | -3 | -1.6% | 5 | -2
Cc1ccc(Cl)cc1NC(=O)CCNC(=O)N1CC(=O)Nc2ccccc21 | -2.0 | -0.9 | 0 | -1.4% | 1 | -27
CCOc1ccc(Cl)cc1CNCCNCC(C)O (stereo not given) | -0.2 | -0.5 | -2 | 0.6%[38.3 µM] | 2 | -27
CCc1cccc(N=c2c([N+](=O)[O-])nn(-c3ccc4c(c3)OCCO4)n2O)c1 | ? | 0.1 | ? | 1.8% | -29 | ?
COc1ccccc1NC1=NC2(CCCC2)N=C(N)N1 | -2.1 | -0.1 | ? | 9.6% | 16 | -12
CCOC(=O)CSC1=NN2CCS(=O)(=O)N=C2S1 | 2.2 | 0.1 | 7 | 1.1% | 9 | 7
Nc1cc(=O)[nH]c(SCC(=O)Nc2ccccc2Sc2ccccc2)n1 | 1.9 | -0.1 | -3 | -0.8% | 9 | 10
CC(C)C(NC(=O)CNC(=O)OC(C)(C)C)C(=O)NCc1ccc(Cl)cc1 (stereo not given) | 0.6 | 0.7 | 9 | 4.7% | 4 | -4
Cc1cc(C)c(C#N)c(SCc2[nH]nc3c2C(c2ccccc2)C(C#N)=C(N)O3)n1 (stereo not given) | -4.1 | 1.0 | -3 | 7.1%[38.3 µM] | -4 | -5
O=C(CSc1nc2ccccc2c(=O)n1CCCN1CCOCC1)Nc1ccccc1OC(F)F | -5.0 | 2.8 | -4 | -0.1% | 3 | -30
COc1ccc(C(=O)Nc2ccc(Cc3ccncc3)cc2)cc1Br | -1.7 | 3.3 | -4 | 1.4% | . | -3
O=C(CSc1nnc(-c2ccccc2Br)o1)Nc1cccc2ccccc12 | -0.6 | 0.0 | 2 | 2.6% | 2 | 2
Cc1ccc(-n2ncc3c2CC(C)(C)CC3NC(=O)CCc2cnn(C)c2)cc1 (stereo not given) | 1.8 | 2.4 | 6 | 2.5% | 3 | -21
Cn1c(SCC(=O)Nc2cccc(F)c2)nnc1-c1cccnc1 | -5.2 | 0.3 | 10 | -0.9% | 1 | -7
CN(C)CCCn1c(SCC(=O)Nc2sc3c(c2C#N)CCCC3)nnc1-c1ccncc1 | -0.3 | 4.3 | 5 | -0.3%[38.3 µM] | 0 | -15
CCOCC(=O)N1CCN(c2ccc([N+](=O)[O-])cc2)CC1 | -3.0 | 0.0 | 14 | -0.8% | 22 | -5
COc1cc2c(cc1OC)C(COc1ccccc1OC)N(C(=O)C(C)C)CC2 (stereo not given) | -2.6 | 0.7 | -6 | -0.2% | -2 | -4
COc1ccccc1NC(=O)NCc1ccccc1F | -6.0 | 1.4 | 9 | 0.4% | 9 | -4
Cc1ccccc1C(=O)N/N=C1/SCC(=O)N1Cc1ccc2c(c1)OCO2 | -2.2 | -0.3 | 9 | -0.5% | 1 | -3
O=c1ccn(-c2cccc(C(F)(F)F)c2)nc1-c1ccn(-c2cccc(Cl)c2)n1 | -0.9 | 1.8 | -6 | 0.7% | -6 | -5

Other entries follow:
Molecule | D2 agonist | TRPML1 agonist | Six1-Eya2 inh | PINK1 expr mod | CtBP-E1A inh | D2 potentiator
O=C(NC(=S)NCc1cccnc1)c1ccccc1F | -2.1 | -0.1 | 8 | 2.7% | 7 | 0
COc1ccc(N=C2S/C(=C\c3ccc(OCC(=O)O)cc3)C(=O)N2CCc2c[nH]c3ccccc23)cc1 | -1.1 | 0.0 | -80* | -1.3% | -20 | -1
Cc1cccc(NC(=O)N2CCCC2C(=O)NCc2cccs2)c1 (stereo not given) | -2.6 | -0.8 | 1 | 4.9% | 6 | -2
CCOC(=O)NC(c1ccccc1)C1CCCCC1=O (stereo not given) | -1.8 | 2.7 | 8 | -1.4% | 2 | 1
C/C=C(\C)C(=O)Nc1cccc(C2=NOC3(C2)C[C@H](C(N)=O)N(C(=O)CC#N)C3)c1 (stereo not given in full) | 1.3 | 0.2 | 7 | 1.3% | . | -2
O=C(COc1ccccc1)N1CCN(C(=O)c2ccco2)CC1 | -0.1 | -0.4 | 5 | -6.4%[38.3 µM] | 12 | -7
O=C(COC(=O)c1ccc[n+]([O-])c1)Nc1ccc([N+](=O)[O-])cc1C(F)(F)F | 4.0 | 1.2 | -4 | ? | 1 | 2
CC(C)(C)c1ccc(/C=C/C(=O)N2CCN(c3ncccn3)CC2)cc1 | -0.9 | 2.8 | 4 | -2.2% | -5 | 9
CCN(CC)C(=O)C[n+]1ccc(C(N)=O)cc1 | -6.7 | 0.4 | -1 | -0.2% | 0 | 1
CC(=O)Nc1ccc(SCC(=O)O)cc1 | -2.4 | -0.5 | 9 | 1.3% | -12 | 2
CCCCOc1cccc(C(=O)Nc2ccc(NC(=O)c3cccs3)cc2)c1 | -2.4 | 1.1 | 32 | -2.2% | 3 | -7
O=C(NCc1ccco1)C12CN(Cc3ccccc3)CC1C(c1ccc([N+](=O)[O-])cc1)=NO2 (stereo not given) | 4.4 | -0.1 | -18 | -0.3% | -9 | 1
CC(=O)NC12CC3CC(C1)CC(C(=O)N1CCN(C(=O)c4ccco4)CC1)(C3)C2 | -0.4 | -0.7 | 4 | 2.2% | 5 | -2
CCN(CC)Cc1cc(O)c(CN(CC)CC)cc1O | ? | 1.1 | ? | -1.3% | 1 | 27
Cc1ccccc1-c1cc(-c2ccccc2O)on1 | -0.6 | 2.4 | 29 | ? | 39 | 6
COc1cccc(-c2cc(C(F)(F)F)nc(-n3cc(C)cn3)n2)c1 | -0.4 | 1.6 | 3 | 0.4% | . | 1
CCC(CC)C(=O)N(CCc1ccc(OC)cc1)Cc1nc2ccccc2c(=O)[nH]1 | 0.3 | 1.3 | 0 | . | 12 | -17
Cc1ccccc1S(=O)(=O)NC(=O)C1(C)CCN1C(=O)c1cccc(F)c1 (stereo not given) | -3.3 | -0.7 | 6 | -0.4% | 7 | -4
Cc1ccc(C2=CSC3=NS(=O)(=O)CCN23)cc1 | -1.8 | -0.4 | 5 | -1.4% | -12 | 1
CCOCCCNC(=O)COC(=O)/C=C/c1ccc(S(=O)(=O)N2CCc3ccccc32)cc1 | -1.0 | 0.0 | 8 | -0.1% | 7 | 1

The final 3 records of the part above open the next one.
Molecule | D2 agonist | TRPML1 agonist | Six1-Eya2 inh | PINK1 expr mod | CtBP-E1A inh | D2 potentiator
Cc1ccccc1S(=O)(=O)NC(=O)C1(C)CCN1C(=O)c1cccc(F)c1 (stereo not given) | -3.3 | -0.7 | 6 | -0.4% | 7 | -4
Cc1ccc(C2=CSC3=NS(=O)(=O)CCN23)cc1 | -1.8 | -0.4 | 5 | -1.4% | -12 | 1
CCOCCCNC(=O)COC(=O)/C=C/c1ccc(S(=O)(=O)N2CCc3ccccc32)cc1 | -1.0 | 0.0 | 8 | -0.1% | 7 | 1
COc1ccc(C2C3=C(CC(c4ccco4)CC3=O)Nc3ccccc3N2C(C)=O)cc1 (stereo not given) | -2.7 | 1.3 | -4 | 1.4% | 1 | 9
CC(=O)N(c1ccccc1)c1nc2ccccc2s1 | -0.6 | -0.6 | 10 | -1.6% | 8 | -7
Cc1c(/C=N\NC(=O)c2ccc(F)cc2)cnn1C | 0.7 | 0.7 | 4 | 0.1% | -15 | -12
CCN(CC(=O)NCc1ccc(F)cc1)C(=O)c1cccnc1SC | -0.3 | 1.0 | -1 | 2.4% | -9 | -4
Cc1ccc(NC(=O)CN(C)CC(=O)Nc2ccccc2C(=O)Nc2ccccc2)cc1 | 3.3 | 0.4 | -3 | 1.3% | 3 | 4
Cc1ccccc1-c1nsc(SCC(=O)c2ccc(Cl)cc2)n1 | 2.6 | 2.4 | 7 | 4.1% | -11 | -2
CC(C)CN(C(=O)COC(=O)c1cc2c(s1)CCC2)C1CCS(=O)(=O)C1 (stereo not given) | -1.3 | -0.4 | -1 | 1.6% | 5 | -3
CCCC(C)C(=O)N(Cc1ccccc1)c1ccccn1 (stereo not given) | -2.0 | -0.6 | -1 | -1.9%[38.3 µM] | 11 | -3
CC(C)C(=O)NC(c1ccc(N(C)C)cc1)c1c(O)ccc2ccccc12 (stereo not given) | -3.6 | 1.0 | 9 | 5.1% | 0 | -15
CC(C)NOC(=O)c1ccc(Cl)cc1 | -2.4 | 2.2 | 12 | -0.5% | 12 | 1
CCS(=O)(=O)n1nc(-c2ccc(OC)cc2)nc1SC | -1.5 | -0.2 | -1 | -0.2% | 0 | 2
Cn1c(=O)cc(SCC(=O)NCCC2=CCCCC2)c2ccccc21 | -2.9 | 0.3 | -8 | 2.0% | -4 | -7
COC(=O)c1ccc(CNC(=O)c2ccccc2C(=O)NCC2(CBr)OCCO2)cc1 | -3.5 | -0.1 | 1 | -1.1% | -2 | -7
C#CCONC(=O)c1cc(OCC(F)(F)F)ccc1OCC(F)(F)F | -0.4 | -1.2 | 1 | -2.3% | 2 | -4
Cc1cc(C)nc(Nc2nc(C(N)Cc3ccc(C(F)(F)F)cc3)cs2)n1 (stereo not given) | 2.3 | 1.3 | -14 | 0.5% | -15 | -1
OCCCCNCc1cc(Br)ccc1OCc1ccccc1 | 5.6 | 0.6 | -1 | -2.0% | . | -18
CN1CCN(C(=O)c2ccccc2NC(=O)Cc2ccccc2)CC1 | -2.5 | 0.1 | -11 | 0.3% | 3 | 1
COc1cc(/C=C(\CCC(=O)O)c2nc3ccccc3s2)ccc1OCC(=O)Nc1c(Cl)cccc1Cl | 0.4 | 0.6 | -2 | 0.0% | 5 | -3
COc1cc(C(=O)Nc2nnc(CC(=O)N3CCOCC3)s2)cc(OC)c1OC | -0.4 | 1.2 | 6 | -1.7% | -1 | -5
COCC(=O)OCC(=O)Nc1ccccc1-c1ccccc1 | -0.4 | -0.1 | 3 | -0.5% | -6 | -4

Following part:
Molecule | D2 agonist | TRPML1 agonist | Six1-Eya2 inh | PINK1 expr mod | CtBP-E1A inh | D2 potentiator
C=C(C)CN(CC)c1nc(N)c2c(N)nc3c(c2c1C#N)CC(=O)N3C12CC3CC(CC(C3)C1)C2 | -2.9 | 1.3 | -21 | ? | ? | 15
Cc1ccc(CN(c2ccc(C(=O)NCc3ccc4c(c3)OCO4)cc2)S(C)(=O)=O)cc1 | 0.2 | 1.7 | 24 | -4.7%[38.3 µM] | 44 | -10
CCCCN1C(C(=O)Nc2ncccn2)=C(O)c2ccccc2S1(=O)=O | -4.3 | -0.5 | 0 | 1.0% | -14 | -7
COc1ccc(CNC(=O)COC(=O)/C=C/c2cccc(Br)c2)cc1 | -1.1 | -0.5 | -1 | 2.0% | -1 | -3
COc1cccc(-c2sc3ccccc3c2-c2ccc(OCCN(C)C)cc2)c1 | 12 | -0.1 | -26 | -1.7% | ? | -2
Cc1cc([N+](=O)[O-])nn1CC(=O)N1N=C(C(F)F)CC1(O)C(F)F (stereo not given) | -6.8 | -0.3 | 3 | 4.9% | 1 | -10
